Compound activity (PubChem BioAssay)
Ecoli rRNA inh – reduced GFP signal of wild-type E. coli, primary screen, bacterial rRNA inhibitor project, GFP/RFP fluorescence, OD600, single point | E. coli WT GFP vs humanized-ribosome RFP mutants, 24 h; hits give low values; DMSO median 0, no signal -100 | GFP signal change (wild-type ribosome), % (test concentration not listed) | actives 1.6% (n = 350,000) | AID 720706, 2013;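 active = significant combined selectivity score with lowered wild-type GFP, culture density cut under 30%, mutant RFP and density less affected; inactive = any of these conditions unmet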; note: one replicate is shown; some compounds called inactive have numbers as strong as hits
E coli growth – E. coli growth inhibition, primary screen, OD600; Escherichia coli growth, 23 h; hits give low values; OD600 absorbance (concentration not given with the values); actives 0.21% (n = 330,000);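 active = OD600 absorbance below the run mean of sample wells minus 3.6 SD, in any replicate, cut at about 0.56 in these data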;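 note: stock transfer was 300 nL into about 60 µL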
UCH37 inh – inhibitors of human UCH37 deubiquitinase, primary screen, biochemical, Ub-AMC cleavage, fluorescence. actives 0.33% (n = 330,000). inhibition, % (concentration not given with the values). purified proteasome/UCH37. AID 588478, 2011. Ubiquitin carboxyl-terminal hydrolase isozyme L5 (Homo sapiens), Q9Y5K5;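 active = mean of two replicates above 20%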;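 note: 0% = compound-free wells with enzyme and 100% = wells lacking proteasome; stock transfer was 100 nL into about 20 µL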
Target sequence (Q9Y5K5 whole entry, looked up): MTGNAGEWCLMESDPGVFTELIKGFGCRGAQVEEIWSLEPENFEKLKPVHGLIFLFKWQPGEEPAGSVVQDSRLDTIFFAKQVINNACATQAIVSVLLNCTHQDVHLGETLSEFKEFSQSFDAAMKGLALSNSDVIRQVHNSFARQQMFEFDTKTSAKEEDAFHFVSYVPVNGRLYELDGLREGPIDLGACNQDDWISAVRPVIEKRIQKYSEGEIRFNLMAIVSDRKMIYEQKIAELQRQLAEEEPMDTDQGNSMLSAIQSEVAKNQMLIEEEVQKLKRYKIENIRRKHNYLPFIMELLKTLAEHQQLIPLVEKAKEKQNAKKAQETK
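assay system = human UCH37 enzyme supplied as purified proteasome complex | amount = proteasome at 0.15 nM in the dispensed enzyme solution | schedule = 30 min compound-proteasome preincubation then 25 min substrate reaction, room temperature | measured by = fluorescence, ex 355 nm, em 460 nm | benchmarks = no-proteasome wells (full inhibition) and compound-free wells (no inhibition)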
Beta cell apopt – inhibitors of cytokine-induced beta cell apoptosis, primary screen, luminescence | actives 0.8% (n = 300,000) | INS-1E cytokine-induced death, ATP luminescence, 48 h; percent of positive-control rescue, neutral wells zero | protection from apoptosis, % (test concentration not listed);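 active = all replicates at 75% or more, or half of them and the mean; inconclusive = half reach 75% but not the mean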;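 note: 0% = cytokine-treated negative control wells and 100% = positive control rescue; higher means more ATP so stronger rescue from cytokine killing; wells of about 40 µL received 100 nL stock; the first replicate is given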
FGF22 binding – binders of human FGF22 protein, primary screen, FGF22 synaptogenesis inhibitor project, biophysical, thermal shift, single point; Fibroblast growth factor 22 (Homo sapiens), Q9HCT0; recombinant FGF22 thermal shift, SYPRO orange fluorescence; percent of sucrose octasulfate shift, DMSO zero; calls only at 9.99 µM; actives 1.5% (n = 340,000);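 active = melting point raised past a set limit in the mean and every replicate; inconclusive = no clear call; three in four hits are not shown here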
Target sequence (Q9HCT0 whole entry, looked up): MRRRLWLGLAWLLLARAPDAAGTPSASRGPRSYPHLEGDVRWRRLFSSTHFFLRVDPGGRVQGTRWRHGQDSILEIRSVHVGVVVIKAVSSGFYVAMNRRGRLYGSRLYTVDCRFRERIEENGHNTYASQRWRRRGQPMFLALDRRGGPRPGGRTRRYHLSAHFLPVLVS
MLL AF4-AF9 inh – inhibitors of AF4 peptide binding to AF9, primary screen, biochemical, AlphaScreen, biotin-AF4 peptide, FLAG-AF9, single point | inhibition, % at 10 µM | AID 651704, 2012 | actives 0.47% (n = 350,000);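 active = every replicate reaching a set inhibition limit, whatever the replicate mean, cut at about 25% in these data; inconclusive = mean inhibition reaches that limit but some replicates miss it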;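 note: 0% = plate neutral control median and 100% = total signal loss; the record names both 10 and 1 µM as test concentration; the first replicate is given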
Target sequence (P42568 whole entry, looked up): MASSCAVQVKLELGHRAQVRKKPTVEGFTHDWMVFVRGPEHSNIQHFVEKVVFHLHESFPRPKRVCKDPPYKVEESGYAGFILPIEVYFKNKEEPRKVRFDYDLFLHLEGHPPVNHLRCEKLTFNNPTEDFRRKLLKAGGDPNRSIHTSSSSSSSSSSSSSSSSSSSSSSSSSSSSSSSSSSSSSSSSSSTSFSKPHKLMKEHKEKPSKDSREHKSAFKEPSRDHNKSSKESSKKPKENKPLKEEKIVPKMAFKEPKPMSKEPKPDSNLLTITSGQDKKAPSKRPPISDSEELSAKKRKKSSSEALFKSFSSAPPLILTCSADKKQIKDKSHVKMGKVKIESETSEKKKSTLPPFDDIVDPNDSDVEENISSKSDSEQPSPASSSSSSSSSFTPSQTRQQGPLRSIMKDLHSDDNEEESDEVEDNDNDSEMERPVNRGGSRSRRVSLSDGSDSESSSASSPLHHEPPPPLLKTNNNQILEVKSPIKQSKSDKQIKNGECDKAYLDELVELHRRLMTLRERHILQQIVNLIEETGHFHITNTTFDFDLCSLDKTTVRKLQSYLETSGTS
A1 inh – caspase 3/7 activation in MEF A1-2A-BIM cells, primary screen, A1 inhibitor project, cell-based, luminescence, HTS. Caspase-Glo 3/7 luminescence, 3 h; percent of clofoctol response, vehicle zero. caspase activation, % (concentration not given with the values). actives 0.066% (n = 330,000). AID 2462, 2010;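 active = over half of replicate activation scores above 10%, or exactly half above 10 with the replicate mean above 10; inconclusive = replicate mean below 10 yet half the replicates above 10; inactive = over half of replicates below 10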;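 note: wells of about 30 µL received 50 nL stock; many hits fall short of the cut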
T cruzi repl – inhibitors of intracellular T. cruzi growth, primary screen, luminescence, NIH3T3 host cells; T. cruzi beta-gal in NIH3T3, 90 h; inhibition, % (no concentration beside the values); actives 1.4% (n = 300,000);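 active = mean inhibition across valid replicates above about 55%, limit read from the data; inconclusive = mean below that limit but half or more replicates reach it; inactive = mean below it, under half of replicates reach it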;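 note: signal also drops with host cell toxicity which is not excluded here; 0% = plate median of DMSO wells and 100% = zero luminescence signal; higher percent means less beta-gal luminescence so fewer parasites; stock transfer was 50 nL into about 50 µL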
Ecoli rRNA inh OD600 – also measured in Ecoli rRNA inh; calls as there; OD600 change, %; measured here: OD600 growth;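 optical density of the mix in the first replicate; 0 = DMSO median and -100 = no signal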
Ecoli rRNA inh RFP – second read-out of Ecoli rRNA inh, no call of its own (marks repeat the call); RFP signal change, %; measured here: RFP humanized mutant strains;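 first replicate; 0 = DMSO median and -100 = no signal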
Starred values were filed as active, the others as inactive; i = inactive; ? = inconclusive; nt = no result given; & = joins results of further samples. This is a subset (hit frequency here may not be typical).

The line under a structure holds: UCH37 inh	Ecoli rRNA inh RFP	MLL AF4-AF9 inh	T cruzi repl	Ecoli rRNA inh	A1 inh	Beta cell apopt	E coli growth	Ecoli rRNA inh OD600	FGF22 binding
1. O=C(c1cccc(N2CCCC2=O)c1)N1CCN(c2cccc(Cl)c2)CC1
 : 4.4	nt	nt	-1	nt	0.4	16	0.7	nt	nt
2. CC1CCCCC1NC(=O)C1CCC(CNS(=O)(=O)c2cccc3cccnc23)CC1 (centres undefined)
 : 1.1	-1.6	-0.4	11	8	1.6	-6	0.72	6	i
3. O=C1NC(=O)/C(=C/c2ccccc2Cl)N1
 : 5.8	-2.8	-0.3	-1	13	-0.4	-2	0.65	8	i
4. Nc1nonc1-c1nc2ccccc2n1CC(=O)N1CCN(c2ccc(F)cc2)CC1
 : 0.3	nt	nt	-1	nt	0.8	-5	0.69	nt	nt
5. CCCCN(C(=O)Cc1cccs1)c1nnc(-c2cccnc2)s1
 : 1.4	nt	nt	nt	nt	-2.5	-2	0.69	nt	nt
6. Cc1ccccc1NC(=O)C1C2CC/C=C\CCC21 (centres undefined)
 : 1.8	-0.5	-9.9	11	6	-0.5	-9	0.71	9	i
7. CCCCn1c(-c2nn(C)c(C)c2Cl)n[nH]c1=S
 : 1.7	nt	nt	-2	nt	0.4	-5	0.67	nt	nt
8. COc1ccc(/C(N)=N/OC(=O)Cc2ccc(OC)c(OC)c2)cc1
 : 2.6	-0.8*	-28	-8	-26*	-1.0	11	0.71	-21*	i
9. O=C(Cn1cnc2ccccc21)N/N=C/c1ccco1
 : nt	6.9	-3.1	-8	14	1.9	-1	nt	22	i
10. CCC1CCCN1Cn1cnc2c([nH]c3ccccc32)c1=O (centres undefined)
 : -7.6	nt	nt	2	nt	0.2	-2	0.75	nt	nt
11. Cc1ccc(C2(C(F)(F)F)NC(=O)N3CCCN=C3S2)cc1 (centres undefined)
 : 4.8	-1.2	0.9	-12	-6	-1.1	2	0.71	-2	i
12. COc1ccc2c(c1)c(C(C)=O)c(C)n2-c1ccccc1
 : 4.3	-5.2	-11	-4	1	-0.2	-8	0.67	2	i
13. CN(CC(=O)NNC(=O)c1cccnc1)S(=O)(=O)c1cc(Cl)ccc1Cl
 : 4.4	2.8	-0.9	-5	2	0.7	-1	0.67	2	i
14. O=C(CCC(=O)Nc1ccc(Br)cc1)N/N=C/c1cc([N+](=O)[O-])ccc1O
 : nt	-3.1	-2.3	-25	4	-0.5	3	nt	9	i
15. CNC(=O)c1sc(SC)cc1-c1ccc(Cl)cc1
 : 1.9	nt	nt	-3	nt	1.2	0	0.71	nt	nt
16. CC(c1ccco1)N(C(=O)c1ccc(S(=O)(=O)N2CCCCC2)cc1)c1ccccn1 (centres undefined)
 : -0.5	nt	nt	0	nt	0.2	-4	0.69	nt	nt
17. O=C(Nc1cccc(S(=O)(=O)N2CCCCCC2)c1)c1cncc(Br)c1
 : 0.4	1.1	-1.5	nt	-16	1.5	-1	0.65	-32	i
18. COCCCN(C(=O)c1cc2c(s1)CCCCC2)c1c(N)n(Cc2ccccc2)c(=O)[nH]c1=O
 : 1.3	-2.9	5.2	0	4	-0.7	nt	0.66	7	i
19. OCCN1CCN(c2nc(-c3ccccc3)nc3c2oc2ccccc23)CC1
 : -0.3	nt	nt	19	nt	?	17	0.64	nt	nt
20. O=C(Cn1c(C(=O)O)cc2ccccc21)c1ccccc1
 : 1.9	-6.0	-1.8	0	-3	1.2	1	0.64	-15	i
21. C[C@@H]1CN([C@H](C)CO)C(=O)c2cc(NS(=O)(=O)c3ccc(F)cc3)ccc2O[C@@H]1CN(C)Cc1ccc(Cl)c(Cl)c1
 : 2.9	3.1&12	2.7	nt	-4&1	nt	nt	0.73	-21&-12	i
22. CN1CCN(C(=O)c2cnn(-c3ccccc3)c2NC(=O)c2ccc(Br)cc2)CC1
 : 0.1	nt	-11	-22	nt	-0.9	-3	0.62	nt	i
23. CN1CCN(c2nc(-c3cccs3)cc(C(F)(F)F)n2)CC1
 : -9.5	nt	nt	25	nt	-0.4	-5	0.68	nt	nt
24. CC(C)NC(=O)NC(=O)COC(=O)c1c2c(nc3ccccc13)CCC2
 : -7.6	3.7	1.1	3	-3	-1.0	nt	0.69	-11	i
25. COC(=O)c1ccccc1NC(=O)CSc1nc(-c2ccco2)cc(C(F)(F)F)n1
 : -0.3	8.6	-24	nt	-4	nt	nt	0.72	-11	i
26. C[C@@H](C(=O)NCCCCCC(=O)O)n1nnc2ccccc2c1=O
 : 0.2	-3.8	-3.9	-4	8	2.2	1	0.67	-1	i
27. CCOc1ccc(NC(=O)c2ccco2)cc1
 : 2.1	nt	nt	-5	nt	-5.2	12	0.7	nt	nt
28. O=C1C2C3CCC(CC3)C2C(=O)N1c1ccccc1 (centres undefined)
 : 1.3	-6.7	-28	-5	3	-0.8	-3	0.68	4	i
29. O=C(CN1CCN(Cc2ccccc2Cl)CC1)N/N=C/c1ccccn1
 : nt	3.3	nt	-3	11	0.2	-7	nt	13	i
30. O=C(CSC(=S)N1CCCC1)N(Cc1nnc(-c2ccccc2Cl)o1)C1CC1
 : -0.5	8.9	1.6	nt	-6	-0.4	1	0.68	-15	i

Fetched one by one from the list above:
The line under a structure holds: UCH37 inh	Ecoli rRNA inh RFP	MLL AF4-AF9 inh	T cruzi repl	Ecoli rRNA inh	A1 inh	Beta cell apopt	E coli growth	Ecoli rRNA inh OD600	FGF22 binding
18. COCCCN(C(=O)c1cc2c(s1)CCCCC2)c1c(N)n(Cc2ccccc2)c(=O)[nH]c1=O
 : 1.3	-2.9	5.2	0	4	-0.7	nt	0.66	7	i
9. O=C(Cn1cnc2ccccc21)N/N=C/c1ccco1
 : nt	6.9	-3.1	-8	14	1.9	-1	nt	22	i

The results go on:
The line under a structure holds: UCH37 inh	Ecoli rRNA inh RFP	MLL AF4-AF9 inh	T cruzi repl	Ecoli rRNA inh	A1 inh	Beta cell apopt	E coli growth	Ecoli rRNA inh OD600	FGF22 binding
31. CCC(C)NC(=O)C1c2ccccc2C(=O)N(c2ccc(OC)cc2)C1c1ccc(OC)cc1 (centres undefined)
 : 1.9	nt	nt	-1	nt	0.6	-6	0.66	nt	nt
32. COc1ccc(N2C(=O)C3CCCN3C2c2cccc(F)c2)cc1Cl (centres undefined)
 : 1.6	nt	nt	7	nt	0.7	-5	0.67	nt	nt
33. CC1Cc2ccccc2N1C(=O)COC(=O)/C=C/c1ccc(F)cc1 (centres undefined)
 : nt	-1.0	-0.2	nt	6	0.2	-2	nt	4	i
34. CCc1nnc(NC(=O)C2CCN(c3cnccn3)CC2)s1
 : -7.8	nt	nt	-9	nt	0.0	4	0.69	nt	nt
35. Cc1ccc2c(c1)-c1c(ssc1=S)C(C)(C)N2C(=O)CN1C(=O)c2ccccc2C1=O
 : 2.9	nt	nt	29	nt	-0.1	8	0.75	nt	nt
36. COc1ccc(C(=O)Nc2ccc(NC(=O)C3CC3)nc2)cc1
 : -1.8	0.4	2.9	8	-1	0.1	-3	0.65	0	i
37. CCOC(=O)Cn1c(=O)c2c(nc(N3CCCCC3)n2C)n(C)c1=O
 : 2.3	nt	nt	41	nt	2.4	2	0.67	nt	nt
38. O=S1(=O)[C@H]2C[C@H](CO)O[C@@]2(CO)CN1Cc1ccc(-c2cccc(Cl)c2)cc1
 : 1.3	-7.7	1.6	nt	-43	nt	nt	0.69	-70	i
39. CC(C)Cn1c(=O)c2sccc2n2c(CCCC(=O)N3CCC(N4CCCCC4)CC3)nnc12
 : 2.2	0.9	-0.6	0	3	-1.0	-4	0.67	7	i
40. CCCn1nnc2c(=O)oc3ccccc3c21
 : 4.5	nt	nt	-3	nt	-0.1	-12	0.71	nt	nt
41. CNC(=O)C(Sc1ccccc1)c1ccccc1 (centres undefined)
 : 0.9	nt	nt	-6	nt	-0.2	-6	0.67	nt	nt
42. Cc1nc2scc(-c3cccs3)c2c(=O)n1N
 : 2.6	-5.7	-2.0	-19	0	-1.0	-8	0.68	-8	i
43. Cc1csc(=O)n1CC(=O)OCC(=O)NCc1ccc(Cl)cc1Cl
 : 4.4	-0.8	7.3	-13	-5	0.6	nt	0.64	2	i
44. C[C@@H]1CN(Cc2nc(-c3cnccn3)no2)C[C@H](C)O1
 : 4.0	11	0.2	-6	12	0.2	-7	0.7	10	i
45. O=C(NCc1ccc2c(c1)OCO2)C1CC(=O)N(CCc2ccc(F)cc2)C1 (centres undefined)
 : 1.4	4.2	-0.2	4	3	0.1	-5	0.71	0	i
46. COc1ccc(/C=C(/NC(=O)c2ccco2)C(=O)NCc2ccco2)cc1OC
 : 5.1	-0.3	-0.9	-10	21	-0.1	4	0.66	16	i
47. COc1cccc(C2Nc3c(F)cc(Br)cc3C3C=CCC32)c1OC (centres undefined)
 : 5.2	nt	nt	-2	nt	0.3	5	0.71	nt	nt
48. CC1(C)CC(=O)C=C(C(=O)NC2CCCc3c2cnn3-c2cc(F)cc(F)c2)O1 (centres undefined)
 : nt	4.0	2.0	2	4	0.1	-1	nt	-3	i
49. NS(=O)(=O)Cc1noc2ccccc12
 : 5.2	-2.9	0.6&-3.2	-17	-1	-0.7	-4	nt	4	i
50. CC(C)(C)c1cc[n+](C2=C([O-])c3ccccc3C(=O)/C2=N\S(=O)(=O)c2cccs2)cc1
 : 50*	6.3	-1.7	15	7	-0.6	107*	0.64	7	i
51. CCOC(=O)C1CCN(C(=O)C2(NC(=O)Nc3cccc(F)c3)CCCCC2)CC1
 : -0.2	-3.3	-1.9	-14	0	1.5	-3	0.72	6	i
52. COc1c(C(=O)Nc2nccs2)ccc2ccccc12
 : -0.8	4.4	-1.2	2	-13	-2.4	0	0.66	-26	i
53. CCN(CC)CCn1c(NC(=O)c2ccc(C(F)(F)F)cc2)nc2ccccc21
 : -264	0.0	3.7	62*	10	-0.6	20	0.71	-3	i
54. CCOc1ccc(N2C(=O)CC(N(CCc3ccccc3)C(=O)/C=C/C(=O)O)C2=O)cc1 (centres undefined)
 : 0.4	2.3	-2.4	-8	9	0.1	-8	0.68	8	i
